KCNQ2 pot: potentiators of rat KCNQ2 potassium channel; Potassium voltage-gated channel subfamily KQT member 2 (Rattus norvegicus), O88943; CHO-K1 KCNQ2, FluxOR thallium flux fluorescence; active compounds read high; B-score at 10 µM; 310,000 compounds, 0.54% hits;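 active = fluorescence ratio B-score at least 3 SD of library B-scores, with initial fluorescence B-score within 3 SD, cut at about 5.3 in these data; same plate scores as AID 2156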;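 also: B-score of peak minus minimum over baseline fluorescence ratio after K+ and Tl+ stimulus; positive B-score means potentiation of KCNQ2 with more thallium influx and brighter signal; only the inactives scoring about 0 or higher are listed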
Target sequence (O88943 whole entry, looked up): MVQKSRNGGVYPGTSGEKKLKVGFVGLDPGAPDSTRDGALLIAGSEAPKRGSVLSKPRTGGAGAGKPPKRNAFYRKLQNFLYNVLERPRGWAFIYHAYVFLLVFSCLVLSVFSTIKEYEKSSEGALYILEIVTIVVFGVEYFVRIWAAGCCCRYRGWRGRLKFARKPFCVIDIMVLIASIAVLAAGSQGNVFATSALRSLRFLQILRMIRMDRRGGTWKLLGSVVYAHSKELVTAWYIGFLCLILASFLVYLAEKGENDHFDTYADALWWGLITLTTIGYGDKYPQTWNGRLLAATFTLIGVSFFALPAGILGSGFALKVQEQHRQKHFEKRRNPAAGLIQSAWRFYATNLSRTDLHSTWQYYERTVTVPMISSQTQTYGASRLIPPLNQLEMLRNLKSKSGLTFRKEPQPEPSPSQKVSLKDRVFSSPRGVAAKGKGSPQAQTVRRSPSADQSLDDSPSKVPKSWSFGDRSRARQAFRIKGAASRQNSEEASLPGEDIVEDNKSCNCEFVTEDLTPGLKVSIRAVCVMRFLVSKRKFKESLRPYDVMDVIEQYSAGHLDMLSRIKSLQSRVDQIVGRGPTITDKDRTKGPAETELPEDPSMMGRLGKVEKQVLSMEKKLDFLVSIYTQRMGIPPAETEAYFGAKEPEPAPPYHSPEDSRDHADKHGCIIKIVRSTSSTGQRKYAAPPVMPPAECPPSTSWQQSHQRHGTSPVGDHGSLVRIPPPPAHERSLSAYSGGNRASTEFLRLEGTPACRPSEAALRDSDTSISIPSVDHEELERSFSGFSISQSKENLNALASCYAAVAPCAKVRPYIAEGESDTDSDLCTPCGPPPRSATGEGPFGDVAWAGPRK
KCNQ2 pot baseline: also measured in KCNQ2 pot; calls as there; B-score; compound at 10 µM; measured here: initial fluorescence intensity artifact check;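 brightness before thallium and not channel activity; 0 = typical well and far values either way flag optical interference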
* hit, by the source's call. The list is partial, so the mix of outcomes need not match the whole.

KCNQ2 pot	KCNQ2 pot baseline	structure
0.66	-0.92	CC(Oc1ccc(Cl)cc1Cl)/C(N)=N/O (stereo not given)
0.82	-1	CCOc1ccccc1OC(=O)c1cc2ccccc2oc1=O
1.2	-1.3	CC(=O)Nc1ccccc1NC(=O)c1ccccc1
0.01	-0.32	Cc1ccc(CN2CC(C(=O)Nc3cccc(C)n3)CC2=O)cc1 (stereo not given)
1.3	-0.76	Cc1ccc(OCC(=O)NC(=S)Nc2ccc(S(=O)(=O)Nc3cc(C)on3)cc2)c(Br)c1
0.85	-0.1	CCN(Cc1ccccc1)C(=O)c1[nH]c2ccc(OC)cc2c1C
5.1	-0.9	CCCCCC(=O)Nc1c2c(nc3ccccc13)CCC2
2.1	-1.5	COc1cc(NC(=O)c2nnn(Cc3ccc(SC)cc3)c2N)cc(OC)c1
0.27	1.1	O=C1c2ccccc2C(O)(c2ncc[nH]2)N1CCc1ccccc1 (stereo not given)
0.64	-0.16	Cc1cccn2cc(CCNC(=O)c3ccc(Br)o3)nc12
1.4	0.1	Cc1ccc(Cc2cnc(NC(=O)C3CCCO3)s2)cc1 (stereo not given)
1.3	-1.3	O=C(Cn1nc(-c2ccc(Cl)cc2)c2ccccc2c1=O)Nc1cccnc1
1.6	0.16	Cc1[nH]c(C)c(S(=O)(=O)Nc2ccccc2)c1C(=O)N1CCCC1
1.9	3.2	O=c1[nH]c(C2CCN(S(=O)(=O)c3ccc(S(=O)(=O)NC4CC4)cc3)CC2)nc2c1nnn2Cc1cccc(F)c1
1.6	0.71	COc1ccc(CCNC(=O)/C=C/C(=O)O)cc1
0.77	1.9	CC(=O)Nc1ccc2[nH]ccc2c1
0.67	0.45	Fc1ccc(NC(=S)Nc2cc(Cl)ccc2Cl)cc1
0.37	-0.18	CCc1ccc(S(=O)(=O)Nc2c(C)nc3nc[nH]n3c2=O)cc1
0.06	0.18	COc1ccc(-c2nn(C)c(=O)c3ccccc23)cc1CNC(=O)CN1CCOCC1
0.62	0.25	COc1ccc(N(C(=O)C(C)C)S(=O)(=O)c2ccc3c(c2)n(C)c(=O)n3C)cc1
0.09	-1.7	Cn1c(NC(=O)c2ccc3c(c2)OCO3)cc(=O)n(C)c1=O
2	-1.1	CCCCn1c(N)c(N(CC)C(=O)c2ccc(N3CCCC3=O)cc2)c(=O)[nH]c1=O
0.09	-0.02	O=C(Nc1ccc(Cl)cc1)Nc1ccccc1C(=O)O
0.73	-0.77	CCOC(=O)Cn1nnnc1C(C(C)C)N(Cc1cccs1)Cc1cc2cc(C)ccc2[nH]c1=O (stereo not given)
0.17	0.19	COc1cc(C2C(C(=O)c3ccco3)=C(O)C(=O)N2CC2CCCO2)ccc1O (stereo not given)

Next results
KCNQ2 pot	KCNQ2 pot baseline	structure
0.98	2.9	CCCNC(=O)Nc1ccccc1SC
0.16	-0.48	COc1cccc(NC(=O)CN(C)C(=O)C2CCN(C(=O)c3ccccc3C)CC2)c1
0.53	1.4	COC(=O)c1ccc(NC(=O)CSc2n[nH]c(-c3ccncc3)n2)cc1
0.21	0.32	O=C(CN(c1ccccc1F)S(=O)(=O)c1ccccc1)NC1CCCCCC1
1.2	-0.19	COc1ccc(/C=C(\NC(=O)c2ccccc2)C(=O)NCC2CCCO2)cc1 (stereo not given)
1.7	0.31	COCCN1C(=O)C(=O)/C(=C(/O)c2ccc(S(=O)(=O)N3CCOCC3)cc2)C1c1cccc([N+](=O)[O-])c1 (stereo not given)
3.6	-0.02	CCN(CC)C(=O)C(=O)N/N=C/c1ccc(C(=O)O)cc1
0.51	-1.3	CCCCOC(=O)c1ccc(NC(=O)c2c(N)n(C)c(=O)[nH]c2=O)cc1
1.7	0	O=C(CN1CCCCCC1)Nc1ccccc1C(=O)Nc1ccccc1
2	-0.67	Cc1onc(-c2ccccc2)c1C(=O)Nc1ccc(S(=O)(=O)N2CCCCC2)cc1
0.17	2.7	Cc1cccc(C(=O)OC2CCOC2=O)c1O (stereo not given)
0.52	0.29	COc1ccc(NC(=O)c2ccc3[nH]c(C)c(C)c3c2)cc1
0.57	-0.08	CCCC1CCC(c2ccc(C(=O)NN)cc2)CC1 (stereo not given)
0.22	-0.5	CCN(CC)CCCNC(=O)c1cn(C)c2ccc(S(=O)(=O)N(C)C3CCCCC3)cc2c1=O
1.8	-0.32	COCCCN(CC(=O)Nc1ccc(N2CCOCC2)cc1)S(=O)(=O)c1ccc(Cl)cc1
0.69	-3	Cc1ccc(S(=O)(=O)N2Cc3ccccc3CC2C(=O)NC(C)(C)C)cc1 (stereo not given)
0.15	0.57	COc1cc(OC)cc(C(=O)N2CCC(N3CCCCCC3)CC2)c1
1.3	0.33	CC1(C)CC(O)(CCNCc2ccc3c(c2)OCO3)CCO1 (stereo not given)
0.75	-2.5	Cc1cccc(NC(=O)C2CCN(S(=O)(=O)c3ccc(Cl)cc3)CC2)n1
0.02	0.59	CCC(=O)N[C@@H]1CC(C(C)(C)NC(=O)CC)CC=C1C (stereo not given in full)
0.42	1.6	COc1ccc(N2C(=O)CCC2=O)c(OC)c1
2	0.01	NC(=O)c1c(NC(=O)CSc2nnc(-c3ccco3)n2N)sc2c1CCCC2
0.02	-0.19	CCS(=O)(=O)N1CCN(Cc2c[nH]c3ccccc23)CC1
2.6	-3	COc1ccc(N(C)C(=O)c2cnc(N3CCN(c4ncccn4)CC3)c3ccccc23)cc1
2.3	0.77	CC(=O)c1ccc(N2CCN(C(=O)C3CCCN3S(=O)(=O)c3cccc4nsnc34)CC2)cc1 (stereo not given)

Sorted by count of non-hydrogen atoms (rising): some entries from above
KCNQ2 pot	KCNQ2 pot baseline	structure
0.52	0.29	COc1ccc(NC(=O)c2ccc3[nH]c(C)c(C)c3c2)cc1
0.15	0.57	COc1cc(OC)cc(C(=O)N2CCC(N3CCCCCC3)CC2)c1
0.53	1.4	COC(=O)c1ccc(NC(=O)CSc2n[nH]c(-c3ccncc3)n2)cc1
1.2	-0.19	COc1ccc(/C=C(\NC(=O)c2ccccc2)C(=O)NCC2CCCO2)cc1 (stereo not given)
2.3	0.77	CC(=O)c1ccc(N2CCN(C(=O)C3CCCN3S(=O)(=O)c3cccc4nsnc34)CC2)cc1 (stereo not given)
1.7	0.31	COCCN1C(=O)C(=O)/C(=C(/O)c2ccc(S(=O)(=O)N3CCOCC3)cc2)C1c1cccc([N+](=O)[O-])c1 (stereo not given)

(further entries)
KCNQ2 pot	KCNQ2 pot baseline	structure
0.36	-0.42	Cc1cc(C)cc(OCCCCCNCCO)c1
0.51	0.55	C=CCNC(=O)c1ccc(N(Cc2ccccc2)S(C)(=O)=O)cc1
0.31	-0.05	O=C(O)CSc1nnc(Cn2cnc3ccccc32)n1CCc1ccccc1
1.3	0.61	O=C(c1ccco1)N1CCCN(C(=O)c2ccco2)CC1
1.1	-0.8	O=c1[nH]c(SCc2ccc([N+](=O)[O-])cc2)nc2[nH]ncc12
0.44	-0.49	CCOc1ccc(CNc2nnnn2C)cc1OC
1.9	1.2	Cc1cccc(NC(=O)Cn2nc(C(F)(F)F)cc2C2CC2)c1
0.48	-0.75	Cc1ccc2ncccc2c1[N+](=O)[O-]
0.01	-0.97	Cc1cnc(NC(=O)c2ccc(OCC3CCCO3)cc2)s1 (stereo not given)
0.13	1.1	CCCCCOc1ccc(/C=C/c2c([N+](=O)[O-])c(=O)n(C)c(=O)n2C)cc1
0.14	0.01	Cc1ccc(C(=O)COC(=O)CCC(=O)NC2CCCCC2)cc1[N+](=O)[O-]
0.07	0.47	CCOC(=O)c1ccc(NCc2ccc3c(c2)OCO3)cc1
0.92	-0.41	CC(C)[C@H](NC(=O)c1ccc(C(C)(C)C)cc1)C(=O)Nc1nnc(C2CC2)s1
0.04	-0.15	COc1cc(/C=N/NC(=O)CC23CC4CC(CC(C4)C2)C3)cc(Br)c1OCC(=O)N(C)C
0.93	0.57	Cc1nc2c3cc(F)ccc3n(Cc3ccccc3)c2s1
0.17	-1	O=C(Nc1ncc(Cc2cccc(Cl)c2)s1)C1CCCO1 (stereo not given)
0.15	2.8	O=C(Cn1ncc2c([nH]c3ccccc32)c1=O)N1CCN(c2ccccn2)CC1
2.5	-1.8	CCN(CC)S(=O)(=O)c1ccc(Cl)c(C(=O)Nc2nncs2)c1
1.1	-1.5	CCCCN(C)C1CCN(C(=S)Nc2ccc(OC)cc2)CC1
1.5	0.06	CCN(CC(=O)Nc1c(F)cccc1F)C(=O)C1CC1C (stereo not given)
0.01	0.49	O=C(O)C1CCCCC1C(=O)Nc1cccc2ccccc12 (stereo not given)
1.1	0.05	C#CCO[C@@H]1C[C@H](n2cnc3c(=O)[nH]c(NC(=O)C(C)C)nc32)O[C@@H]1CO
0.45	2.3	COc1ccc(C(=O)NC2CCN(CC(=O)NCc3cccc(OC)c3)CC2)cc1
2.4	-0.02	CCC(c1nnnn1Cc1ccccc1)N(Cc1ccco1)Cc1cc2cc(OC)ccc2[nH]c1=O (stereo not given)
0.88	-0.13	COc1ccc(-n2c(O)c(/C=N/Nc3nc(C)cc(C)n3)c3ccccc3c2=O)cc1OC

(further entries)
KCNQ2 pot	KCNQ2 pot baseline	structure
1.5	-0.09	COCCN1C(=O)C(CC(=O)Nc2ccc(C(=O)O)cc2)SC1=Nc1ccccc1 (stereo not given)
0.1	0.99	Cc1ccc(CN2CCN(C(=O)CCN3C(=O)c4ccccc4C3=O)CC2)cc1
0.04	0.83	COc1ccc(C(=O)NCCCCCCNC(=O)c2ccc(OC)cc2)cc1
0.63	0.98	Cc1cc(C)c(NC(=O)c2sc3nc4c(cc3c2N)C(=O)CC(C)(C)C4)c(C)c1
0.36	-1.4	COc1ccc(CN2C(=NC(=O)C3CCCCC3)SC3CS(=O)(=O)CC32)cc1 (stereo not given)
1.4	0.5	Cc1c(Cl)c([N+](=O)[O-])nn1CC(=O)NC12CC3CC(CC(C3)C1)C2
0.02	-0.99	O=C(CS(=O)(=O)c1cn(CC(=O)N2CCOCC2)c2ccccc12)NCc1ccc(F)cc1
1.3	1.5	CC(C)NC(=O)Cn1cc(C(=O)C(=O)N2CCOCC2)c2ccccc21
15	15	O=c1c(O)c(-c2cccs2)oc2ccc(Cl)cc12
1.8	-1.5	O=C(COC(=O)c1ccco1)Nc1cccc(Br)c1
0.32	2	CN(C)c1ccc(C2Nc3ccccc3C(=O)N2NS(=O)(=O)c2ccccc2)cc1 (stereo not given)
0.44	3.5	CCN(CC)CCn1c2c(c(SCC(=O)Nc3ccc(C)c(F)c3)nc1=O)CCC2
0.37	0.71	CCn1c(=O)c([N+](=O)[O-])c(NCC(O)c2ccccc2)c2ccccc21 (stereo not given)
0.6	3.1	O=C(N/N=C/c1ccccn1)c1cccc(NC(=O)c2ccc(Cl)cc2)c1
0.65	-1	O=C(/C=C/c1ccc(Br)cc1)N1CCN(Cc2ccccc2)CC1
0.01	0.39	CCCc1cc(-c2n[nH]c(=S)n2CC)cs1
0.21	-1.1	COC(=O)c1ccccc1S(=O)(=O)N1CCC(C(=O)OCc2cccc(OC)c2OC)CC1
0.06	3.1	CCOc1ccc2[nH]c(=O)c(CN(CCO)C(=O)c3ccc(Br)cc3)cc2c1
0.48	0.01	COc1ccc(S(=O)(=O)Nc2cccc(Cl)c2)cc1OC
0.66	-0.8	CCc1ccc(-n2cc(-c3ccc([N+](=O)[O-])cc3)[nH]c2=S)cc1
1.1	0.76	CC(=O)Nc1ccc(NC(=O)COC(=O)Cc2c[nH]c3ccccc23)cc1
0.32	-0.46	O=C(CN1C(=O)S/C(=C/c2ccccn2)C1=O)N1CCOCC1
1.1	1.5	Cc1ccc(C(NC(=O)N2CCOCC2)C(Cl)(Cl)Cl)cc1F (stereo not given)
0.25	-0.78	CCOc1cc(CNS(=O)(=O)c2cn(C)cn2)cc(OCC)c1OCC
1.3	-0.15	COCCCNCCOc1ccc(C(C)(C)c2ccccc2)cc1

Already shown: five of the compounds above.
KCNQ2 pot	KCNQ2 pot baseline	structure
0.63	0.98	Cc1cc(C)c(NC(=O)c2sc3nc4c(cc3c2N)C(=O)CC(C)(C)C4)c(C)c1
0.36	-1.4	COc1ccc(CN2C(=NC(=O)C3CCCCC3)SC3CS(=O)(=O)CC32)cc1 (stereo not given)
1.4	0.5	Cc1c(Cl)c([N+](=O)[O-])nn1CC(=O)NC12CC3CC(CC(C3)C1)C2
0.02	-0.99	O=C(CS(=O)(=O)c1cn(CC(=O)N2CCOCC2)c2ccccc12)NCc1ccc(F)cc1
1.3	1.5	CC(C)NC(=O)Cn1cc(C(=O)C(=O)N2CCOCC2)c2ccccc21

(list continues)
KCNQ2 pot	KCNQ2 pot baseline	structure
0.51	-0.53	O=C(O)c1cccc(N/N=C(\N=Nc2ccccc2)c2ccccc2)c1
0.9	-0.99	CCOC(=O)Cc1csc(NS(=O)(=O)c2ccccc2)n1
1.4	2.5	CCN(C(=O)c1c(OC)cccc1OC)c1nnc(-c2cccnc2)s1
3.5	-1.5	O=C(CSCc1ccccc1Cl)Nc1c[nH]c(=O)[nH]c1=O
1.2	-0.81	Cc1ccc(/C=C/C(=O)NC(=S)Nc2ccccc2C(=O)NC2CCCCC2)cc1
0.69	-1.5	COc1ccc(/C=N/Nc2ccccc2)cc1Cn1nc(C)c([N+](=O)[O-])c1C
1.3	2.2	O=C(Nc1ccc2ccccc2c1)C(=O)C1C(=O)Nc2ccccc21 (stereo not given)
2	0.01	CCC1CCCCN1CCCNC(=O)c1c(O)nc2cc(C)ccn2c1=O (stereo not given)
0.56	-0.45	O=C(O)COc1ccccc1/C=N/NC(=O)CSc1nc2ccccc2n1Cc1ccc(Cl)cc1
1	-1.4	CCCCn1c(=N)n(CC(O)COc2ccccc2)c2ccccc21 (stereo not given)
1.4	2.8	COc1cccc(-c2nnc3n2N=C(C(C)(C)C)CS3)c1
0.01	-0.14	COC(=O)c1c(C)n(-c2ccc(C)cc2)c2ccc(O)cc12
0.02	2.7	CCOC(=O)c1cn2nc(Oc3cccc(C(F)(F)F)c3)ccc2n1
0.94	-0.38	COc1ccc(N2CCN(C(=O)NC(=O)c3ccccc3)CC2)cc1
